# Compound activity deposited in PubChem BioAssay by National Center for Advancing Translational Sciences (NCATS).
# VDR inhibitor: Inhibitors of the vitamin D receptor (VDR): qHTS; Vitamin D3 receptor (Homo sapiens), P11473; VDR-SRC2-3 peptide fluorescence polarization, 2 h; Potency, µM, without a hit: max response, negative = inhibition, actives largely listed as inhibitors; hit rate 0.93% among 400,000; AID 504847, 2011; active = well fitted inhibition curve with a large enough effect; inconclusive = small, poorly fitted or top-dose-only effect, or another doubt; inactive = no such curve, though single readings can be large or run the other way; also: series mostly up to about 120 µM
# Target sequence (P11473 whole entry, looked up): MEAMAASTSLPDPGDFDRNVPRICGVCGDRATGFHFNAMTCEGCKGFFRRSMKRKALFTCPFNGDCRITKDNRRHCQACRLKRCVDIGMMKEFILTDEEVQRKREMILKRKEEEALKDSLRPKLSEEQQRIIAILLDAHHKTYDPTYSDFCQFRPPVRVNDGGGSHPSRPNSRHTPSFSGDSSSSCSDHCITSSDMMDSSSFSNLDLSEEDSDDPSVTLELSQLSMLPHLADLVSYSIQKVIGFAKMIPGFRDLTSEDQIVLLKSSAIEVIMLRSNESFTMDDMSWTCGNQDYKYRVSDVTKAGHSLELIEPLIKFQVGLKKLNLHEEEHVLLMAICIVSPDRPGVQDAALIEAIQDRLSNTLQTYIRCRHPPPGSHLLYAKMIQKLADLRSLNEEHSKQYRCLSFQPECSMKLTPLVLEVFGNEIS
#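 VDR–SRC2-3 interaction, FP format. Cmpds 23 nl via pintool, brief spin, 2 h ambient incubation.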
# * marks the source's active call; other numbers are inactive results; ? = inconclusive; & = joins results of further samples. % is scaled to controls: 0 for no effect and ±100 for the full control effect; potency is read from the fitted curve at half-maximal effect.
SMILES,VDR inhibitor
COC(=O)c1cc(-c2ccccc2)n[nH]1,13%
COC(=O)CC1C(=O)NCCN1C(=O)CSc1nc2ccccc2s1 (stereo not drawn),?
CCC1(O)C(=O)OCc2c1cc1n(c2=O)Cc2cc3cc(O)ccc3nc2-1 (stereo not drawn),-24%
COc1cc(OC)cc(C(=O)Nc2cc(NC(=O)c3ccco3)ccc2OC)c1,-15%
Cc1[nH]c2ccc(C(=O)N3CCN(c4cccc(Cl)c4)CC3)cc2c1C,-20%
O=C(c1ccccc1)N1CCN(C2CCCCCC2)CC1,-7%
CC(C)C(=O)OCC(=O)NCc1ccccc1Cl,-16%
CC(OC(=O)c1cc(S(=O)(=O)Nc2ccc(F)cc2)ccc1Cl)C(=O)Nc1ccc2c(c1)OCCO2 (stereo not drawn),-7%
CCOc1cc2[nH]c(=S)n(CCCC(=O)NCc3ccco3)c(=O)c2cc1OCC,0%
CCOc1ccc(NC(=S)N(Cc2ccc(Cl)cc2)Cc2ccco2)cc1,-12%

# Entries shown so far that have a furan ring, fused or not (three):
SMILES,VDR inhibitor
COc1cc(OC)cc(C(=O)Nc2cc(NC(=O)c3ccco3)ccc2OC)c1,-15%
CCOc1cc2[nH]c(=S)n(CCCC(=O)NCc3ccco3)c(=O)c2cc1OCC,0%
CCOc1ccc(NC(=S)N(Cc2ccc(Cl)cc2)Cc2ccco2)cc1,-12%

# Carrying on.
SMILES,VDR inhibitor
COc1ccc(-c2ccc3oc(-c4ccsc4)cc(=O)c3c2)cn1,5%
CCOc1ccccc1NC(=O)COc1ccc2ccc(=O)oc2c1,16%
O=C(O)c1cccc2c1-c1c(cccc1[N+](=O)[O-])C2,?
Cc1ccc(N=Nc2ccc(O)cc2)c(Br)c1,23%
CN(Cc1ccc(Cl)c(Cl)c1)C(=O)C1CSC2(C)CCC(=O)N12 (stereo not drawn),-12%
Nc1ncnc2c1ncn2C1C=C(CO)C(O)C1O (stereo not drawn),7%
O=C(CN1C(=O)c2ccccc2C1=O)OCc1nc2ccsc2c(=O)[nH]1,-1%
CCCOc1ccc(-c2c(C(=O)N/N=C/c3ccco3)nnn2-c2nonc2N)cc1,9%
FC(F)(F)c1cc(CCN2CCNC[C@@H]2CC2CCCCC2)cc(C(F)(F)F)c1,-23%
O=C(Nc1ccc(C(=O)N2CCCC2)cc1)c1ccccc1Br,4%
COCCNc1cc(C)nc2ccccc12,11%
COc1cccc(NC(=O)CCCCCn2nnc3ccccc3c2=O)c1,-19%
CC(=O)c1c(C)[nH]c(C(=O)OCC(=O)N2CCc3ccccc3C2)c1C,-7%
[O-][n+]1c2c(nn1-c1ccccc1)/C(=N/O)CCC2,-3%
CCc1nnc(NC(=O)CSc2nnc3scc(-c4ccc(C)cc4)n23)s1,13%
O=C(NCC(=O)N1CCN(c2ncccn2)CC1)c1ccccc1OC(F)F,-14%
COc1cccc(NC(=O)CN2C(=O)NC(C)(CC(C)C)C2=O)c1 (stereo not drawn),-9%
C=CCn1c(C(C)NC(=O)c2ccc(C)cc2)n[nH]c1=S (stereo not drawn),-4%
Cc1ccc(OCC(=O)Nc2ccc(N3CCN(S(C)(=O)=O)CC3)cc2)c(C)c1,3%
O=C(CCc1nnc2n(Cc3ccccc3Cl)c(=O)c3ccccc3n12)Nc1ccccc1,-11%
CCOC(=O)c1ccc(N2C(=O)CC(N3CCC(O)(c4ccc(Cl)cc4)CC3)C2=O)cc1 (stereo not drawn),13%
CC(=O)NC(Cc1ccc(C)cc1)C(=O)NC1CCN(C(=O)c2cnccn2)CC1 (stereo not drawn),13%
COc1ccc(Cl)cc1NC(=O)c1cccc(S(=O)(=O)Nc2c(C)n(C)n(-c3ccccc3)c2=O)c1,-3%
COc1ccc(N2CCCC2=N)c(OC)c1,-6%
COc1ccc(CC(=O)NNC(=O)c2cccnc2)cc1OC,-4%
CSc1ncccc1C(=O)OCn1nnc2ccccc2c1=O,5%
COc1ccc2c(-c3ccccc3)cc(SC(C)C(N)=O)nc2c1 (stereo not drawn),-29%
C=CCn1c(SCC(=O)N(CC)C2CCS(=O)(=O)C2)nc2sc3c(c2c1=O)CCC3 (stereo not drawn),15%
CC(C)[C@@H]1COC(c2cccc(C3=N[C@H](C(C)C)CO3)c2)=N1,1%
O=C1C=CC(=O)c2c(O)c(CO)c(CO)c(O)c21,?
CC(C)C[C@H]1CN([C@@H](CC(C)C)CN2CCCC2CN2C(=S)NC[C@@H]2Cc2ccc(O)cc2)C(=S)N1CC1CCCCC1 (stereo partly drawn),4%
CN(CCc1cnn(C)c1)Cc1nc(CC2CC2)no1,-10%
Cc1cc(C)nc(N/N=C/c2c(CO)cnc(C)c2O)n1,?
Cn1c(Cl)c(/C=N/OC(=O)c2ccccc2Cl)c2ccccc21,-5%
COc1ccc(-n2nc(C(=O)NCc3ccc(F)cc3)c3c4ccccc4n(C)c3c2=O)cc1,10%
Cc1c(CCNC(=O)c2c(F)cccc2F)sc2nc(-c3ccc(F)cc3)nn12,13%
O=C(c1noc2c1CCCC2)N1CCc2ccccc2C1,-7%
O=C(O)c1cc(Cl)c2c(c1)[C@@H]1C=CC[C@@H]1[C@H](c1ccc(S(=O)(=O)N3CCOCC3)cc1)N2,?
Cc1ccc2nc(SCc3nc(-c4ccc(Cl)cc4)no3)[nH]c2c1,-4%
COC(=O)c1sc2ccccc2c1NC(=O)c1ccc(S(=O)(=O)N2CCCCC2C)cc1 (stereo not drawn),-15%
COc1ccc(CNC(=O)c2csnn2)cc1,-8%
COC(=O)[C@@H]1C[C@@]2(O)[C@@H](O)[C@@H](O)[C@@H](O)C[C@H]2N1C/C=C/c1ccccc1,-6%
N#Cc1cccc(-c2nc3cnc(Oc4cccc(Cl)c4)nc3n(C3CC3)c2=O)c1,-1%
O=C(Cc1ccccc1)NCC(=O)Nc1ccccc1Br,-9%
O=C(Nc1ccc2oc(=O)ccc2c1)c1ccc(-c2cccc(Cl)c2)o1,-6%
COc1ccc(-c2noc(N3CCC(C(=O)NCCCN4CCCCC4)CC3)n2)cc1,-21%
O=C(Cn1cc([N+](=O)[O-])cn1)Nc1nccs1,4%
NCCCCCC(=O)Nc1ccncc1,7%
COc1cccc(NC(=O)CN(C)C(=O)CSc2ncnc3sc(C)c(C)c23)c1,-8%
CN1CC(=O)Nc2ccc([N+](=O)[O-])cc2C1=O,-9%
# Later entries:
SMILES,VDR inhibitor
S=C(Nc1ccc(Br)cc1)NC1CCCCC1,-2%
CCOC(=O)N1CCN(c2nnc(-c3ccccc3)c3ccccc23)CC1,8%
O=C(COCc1cc(-c2ccc(F)cc2)on1)Nc1cccc(C(F)(F)F)c1,5%
CCCOc1ccc(NC(=O)CC2C(=O)N(c3cccc(OC)c3)C(=O)N2Cc2cccs2)cc1 (stereo not drawn),3%
CCN1CCN(S(=O)(=O)c2ccc(Cl)c(C(=O)N(C)C(c3ccccc3)c3ccccc3)c2)CC1,-9%
Cc1ccc(/C=C2\SC(=S)N(CCCC(=O)Nc3ccccc3C(=O)O)C2=O)cc1,?
Cc1ccc(NC(=O)COC(=O)C2CCC2)cc1S(=O)(=O)N1CCOCC1,15%
COc1ccccc1N1CCN(C(=O)CCNS(=O)(=O)c2ccc3c(c2)CCN3C(=O)C2CC2)CC1,4%
CCc1ccc(NC(=O)/C(C#N)=C/c2cc3ccc(C)cc3nc2N2CCOCC2)cc1,-4%
COC(=O)c1ccc(C(=O)NCCCCO)cc1,-23%
COc1ccc(Cl)cc1NC(=O)Cn1cc(C(=O)c2ccncc2)c(=O)c2cc(C)ccc21,9%
CCc1ccc(C(=O)c2cn(CC(=O)Nc3ccc(Cl)cc3)c3cc4c(cc3c2=O)OCO4)cc1,-9%
CCn1cc(C(=O)NCCc2ccccc2)c(=O)c2cc(S(=O)(=O)N3CCc4ccccc4C3)ccc21,-9%
Cc1ccsc1/C=N/NC(=O)CN1CCN(S(=O)(=O)c2ccc(Br)cc2)CC1,-3%
CCCCNC(=O)N1CCc2[nH]c3ccccc3c2C1,3%
CCSc1ncc(Cl)c(C(=O)Nc2cc(C)ccc2C)n1,4%&2%
COC/C=C/C1=CC2=CC(=O)C(C)(OC(=O)c3cnc4ccccc4n3)C(=O)C2=CN1CCN1CCOCC1 (stereo not drawn),3%
CCOc1ccc(NC(=O)N2CCC(NC(=O)C(Cc3ccc(OC)c(OC)c3)NC(C)=O)CC2)cc1 (stereo not drawn),4%
CN1C(=O)CSc2ccc(NC(=O)N3CCN(c4ccccn4)CC3)cc21,-9%
Cc1cc(C(=O)N2CCN(c3ccc([N+](=O)[O-])cc3)CC2)no1,2%
Cc1cccc(-n2c(SCc3ccc([N+](=O)[O-])cc3)nnc2-c2c[nH]c3ccccc23)c1,-2%
CCN(C(=O)COC(=O)c1[nH]c(C)c(C(C)=O)c1C)c1c(N)n(Cc2ccccc2)c(=O)[nH]c1=O,28%
COc1ccccc1CN1CC(C(=O)N2CCCCCCC2)CCC1=O (stereo not drawn),-14%
CC(OC(=O)C1=Cc2ccccc2OC1)C(=O)NC1CCCC1 (stereo not drawn),?
CCCCN(C(=O)C1CC(=O)N(c2ccc(C)cc2)C1)c1c(N)n(CCC)c(=O)[nH]c1=O (stereo not drawn),2%
Cc1nn(-c2ccccc2)c(C)c1/C=C/C(=O)OCC(=O)NC1CCS(=O)(=O)C1 (stereo not drawn),15%
COc1ccc(-c2oc3ncn4nc(COc5ccccc5C)nc4c3c2-c2ccc(OC)cc2)cc1,-20%
Cc1ccccc1NC(=O)CSc1nc2ccccc2c2nc(CCn3c(C)nc4ccccc43)nn12,-8%
COc1ccc(S(=O)(=O)N2CCCC(C(=O)N3CCCCCC3)C2)cc1 (stereo not drawn),12%
Cc1cc(NCCOCCO)n2c(nc3ccccc32)c1C#N,5%

# In the list so far, seven contain a thiophene ring, fused or not:
SMILES,VDR inhibitor
COc1ccc(-c2ccc3oc(-c4ccsc4)cc(=O)c3c2)cn1,5%
O=C(CN1C(=O)c2ccccc2C1=O)OCc1nc2ccsc2c(=O)[nH]1,-1%
C=CCn1c(SCC(=O)N(CC)C2CCS(=O)(=O)C2)nc2sc3c(c2c1=O)CCC3 (stereo not drawn),15%
COC(=O)c1sc2ccccc2c1NC(=O)c1ccc(S(=O)(=O)N2CCCCC2C)cc1 (stereo not drawn),-15%
COc1cccc(NC(=O)CN(C)C(=O)CSc2ncnc3sc(C)c(C)c23)c1,-8%
CCCOc1ccc(NC(=O)CC2C(=O)N(c3cccc(OC)c3)C(=O)N2Cc2cccs2)cc1 (stereo not drawn),3%
Cc1ccsc1/C=N/NC(=O)CN1CCN(S(=O)(=O)c2ccc(Br)cc2)CC1,-3%

# (list continues)
SMILES,VDR inhibitor
O=c1[nH]c(-c2ccccn2)nc2ccccc12,22%
Cc1ccc(C)c(NC(=S)NCCSc2ccc(Cl)cc2)c1,-5%
COc1ccc(S(=O)(=O)N2CCC(C(=O)NCCC3=CCCCC3)CC2)cc1OC,-16%
N#Cc1ccc(Cn2c(-c3ccc(F)cc3)noc2=O)cc1,-1%
Cc1ccc(N(C)S(=O)(=O)c2cccc(C(=O)NC3CC(C)(C)NC(C)(C)C3)c2)cc1,-17%
CC(=O)C1C=CC(C)(C(=O)O)C2C=C(C)C(=O)C(C)(O)C12 (stereo not drawn),15%
CN1CCC(=O)N([C@H](CSc2ccccc2)c2ccccc2)CC1,-11%
O=C(NCc1ccc2c(c1)OCO2)C1CCN(C(=O)Nc2ccc(Cl)cc2)CC1,17%
COC(=O)CCC(=O)Nc1cccc2ccccc12,14%
O=C(N=C1SC2CS(=O)(=O)CC2N1c1ccccc1Cl)C1CCCO1 (stereo not drawn),-7%

# Single entries from the list:
# CN1CCC(=O)N([C@H](CSc2ccccc2)c2ccccc2)CC1 in VDR inhibitor = -11%
# CC(=O)C1C=CC(C)(C(=O)O)C2C=C(C)C(=O)C(C)(O)C12 (stereo not drawn) in VDR inhibitor = 15%
# COC(=O)CCC(=O)Nc1cccc2ccccc12 in VDR inhibitor = 14%
# O=C(NCc1ccc2c(c1)OCO2)C1CCN(C(=O)Nc2ccc(Cl)cc2)CC1 in VDR inhibitor = 17%
# O=C(N=C1SC2CS(=O)(=O)CC2N1c1ccccc1Cl)C1CCCO1 (stereo not drawn) in VDR inhibitor = -7%

# Carrying on.
SMILES,VDR inhibitor
CCOc1ccc2nc3ccc4[nH]onc4c3c2c1,-14%
Cc1c(Cl)cnc(NC(=O)COC(=O)[C@H](C)NC(=O)c2ccccc2)c1Cl,-13%
CC1=C(C(=O)OC(C)C)C(c2ccncc2)n2ncnc2N1 (stereo not drawn),-5%
Cc1nc(CSc2ccc(Cl)cc2)cc(NCc2ccccc2)n1,3%
COCc1nnc(NS(=O)(=O)c2ccc(C)cc2)s1,1%
NS(=O)(=O)c1ccc(CCNC(=O)C(=O)NCC2OCCN2S(=O)(=O)c2ccc(Cl)cc2)cc1 (stereo not drawn),8%
O=C(CCS(=O)(=O)c1cccs1)Nc1ccc(C(=O)NC2CCCC2)cc1,6%
COC(=O)Cc1[nH]nc2c1C1(C(=O)N(Cc3ccccc3)c3ccccc31)C(C#N)=C(N)O2 (stereo not drawn),11%
C=C1C2(C(=O)Nc3nccs3)CCC(C2)C1(C)C (stereo not drawn),2%
O=C(NCCc1csc(-c2ccc(F)cc2)n1)C(=O)Nc1ccc(Cl)cc1,8%
O=C(CSc1nc(O)cc(=O)n1-c1ccccc1)Nc1ccc(Br)cn1,15%
CCSc1nc2sc3c(c2c(=O)n1-c1ccccc1C)CCN(C)C3,-15%
CCOC(=O)c1sc2ncn(C(C)C(=O)OC)c(=O)c2c1C (stereo not drawn),15%
Cc1ccc(C)c(NC(=O)CN(C)C(=O)C2COc3ccccc3O2)c1 (stereo not drawn),2%
CCCCNC(=O)Nc1ccc2c(c1)N(C)C(=O)c1ccccc1S2,2%&-1%
CCCCCn1c(=O)[nH]c2cc(C(=O)NCCCN3CCCCC3C)ccc2c1=O (stereo not drawn),-5%
CC1CCCCN1C(=O)CSc1nnc(CSc2ncccn2)n1C (stereo not drawn),28%
O=C(Cn1c(=O)oc2cc(S(=O)(=O)NCc3ccccc3)ccc21)N1CCCC1,0%
CCS(=O)(=O)c1ncc(Cl)c(C(=O)Nc2ccccc2)n1,?
COc1ccc(NC(=O)CSc2nnc(NC(=O)CN3CCOCC3)s2)cc1,-22%

# Not all compounds are listed; the hit share may differ from the screen's.
